# High-throughput results (PubChem BioAssay)
# BJeLR viability – BJeLR cell viability loss. BJeLR (HRASV12) viability, CellTiter-Glo ATP luminescence, 48 h; reference of the scale not given here. inhibition, % (concentration not given with the values). actives 0.17% (n = 300,000). AID 1554;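 active = replicate mean above 50%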;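 note: 50 nL library stock added to about 25 µL; numbers are from one replicate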
# Sa RN4220 lethal – kills Staphylococcus aureus RN4220. inhibition, % (concentration not given with the values). actives 0.33% (n = 330,000). S. aureus RN4220 growth, OD600, 16 h;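 active = z-score of -3 or lower and OD600 up to 0.18 on both plates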;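 note: plate controls were untreated cells for no effect and reference antibiotic for full effect; stock transfer was 100 nL into about 80 µL; one replicate is shown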
# PrP 5UTR inh – suppresses PrP 5' UTR mRNA reporter expression | cell-based PrP 5' UTR mRNA reporter, plate reader | inhibition, % (concentration not given with the values) | actives 0.35% (n = 340,000);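 active = every replicate at 50% or more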;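 note: 0 = median of the neutral control wells; tested in H4 reporter cells; numbers are from one replicate; inactives centre near -14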
# Mtb hypoxia inh – Mtb hypoxia fluorescent reporter inhibition. M. tuberculosis hypoxia-regulated fluorescent reporter, fluorescence. fluorescence inhibition, % (concentration not given with the values). actives 0.1% (n = 300,000). AID 1159583;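 active = 35 to 45% if threefold the growth effect, above 45% if 1.5-fold the growth effect; inactive = the rest, general growth blockers included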;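 note: wells of about 50 µL received 100 nL stock; 0% = vehicle wells and 100% = reference inhibitor wells; whole bacteria with a GFP reporter of the hypoxia response; strong numbers were not always called active; many hits fall short of the cut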
# Bead autofluor – counter-screen for toxin protease inhibitors: compound fluorescence; compound autofluorescence counterscreen, microsphere flow cytometry; active compounds read high; fluorescence intensity (no concentration beside the values); actives 3.1% (n = 360,000); AID 624483;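 active = at least 3 SD above the mean of all compounds, about 16000 in these data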;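 note: 100 nL of 1 mM stock went into each well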
# Sa ugtP lethal – compounds lethal to S. aureus RN4220 ugtP deletion mutant. OD600 growth, 16 h; some inactives read as strong as hits. growth inhibition, % (no concentration beside the values). actives 0.54% (n = 330,000). AID 1259309;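 active = z-score under -3 and OD600 up to 0.15 on both plates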;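 note: plate controls were untreated wells for no effect and antibiotic for full effect; wells of about 80 µL received 100 nL stock; the first replicate is given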
# Mtb hypoxia inh growth – further read-out of Mtb hypoxia inh, marked with its call; growth inhibition, %; measured here: M. tuberculosis growth (absorbance);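 0% = vehicle and 100% = reference antibiotic; read after six days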
# Starred values were filed as active, the others as inactive; · = not tested or not shown.
1: CCCCC(c1nnnn1CS(=O)(=O)c1ccc(C)cc1)N1CCN(c2ccccc2)CC1 (stereo unspecified)
2: Cc1ccc(C2CC=C(C(=O)O)C(c3ccccc3F)N2S(=O)(=O)c2ccc(C)cc2)cc1 (stereo unspecified)
3: O=C(CN1CCCCCC1=O)N1CCN(S(=O)(=O)c2cccs2)CC1
4: COc1ccc(C(NC(=O)C(C)(C)C)NC(=O)C(C)(C)C)cc1
5: Nc1nc(SCC(=O)Nc2ccc3c(c2)OCO3)n[nH]1
6: COc1ccc(OC)c(NC(=O)c2cccnc2Sc2ccccc2)c1

Screen / compound no.	1	2	3	4	5	6
BJeLR viability	-8.5	·	-3.8	3.9	-3.7	-17.3
Sa RN4220 lethal	2.3	24.0	4.2	-5.2	17.8	2.9
PrP 5UTR inh	-0.2	·	-15.6	-13.9	-25.4	0.3
Mtb hypoxia inh	4.2	9.8	4.0	4.0	10.2	7.1
Mtb hypoxia inh growth	8.0	5.9	-1.9	6.7	10.3	9.3
Bead autofluor	3983	·	2223	4795	4331	2137
Sa ugtP lethal	0.9	26.1	2.1	0.3	5.0	0.1

7: O=c1[nH]c(O)c(/C=C2/C=CC(c3cc(Cl)ccc3Cl)=N2)c(=O)[nH]1
8: C/C(=N\NC(=O)c1ccccc1)c1ccc(N2CCOCC2)cc1
9: Cc1ccc(Cl)cc1NC(=O)CNCC(c1ccccc1)N(C)C (stereo unspecified)
10: O=C(Nc1ccc(F)cc1)c1nc2c(nnn2Cc2cccc3ccccc23)c(=O)[nH]1
11: CCN1CCN(C(=O)Nc2cccc(C(F)(F)F)c2)CC1
12: Cc1cc(C(F)(F)F)c(C#N)c(SCC(=O)Nc2nc3cc(Br)ccc3s2)n1

Screen / compound no.	7	8	9	10	11	12
BJeLR viability	2.9	-3.6	-3.1	2.9	-16.2	5.5
Sa RN4220 lethal	21.7	·	4.5	3.2	2.3	33.6
PrP 5UTR inh	-39.9	-12.9	-4.9	-3.0	-25.6	-9.1
Mtb hypoxia inh	21.3	·	6.9	-1.0	9.9	-2.1
Mtb hypoxia inh growth	30.2	·	-0.3	3.5	8.6	5.5
Bead autofluor	4729	4236	3691	3198	11356	2086
Sa ugtP lethal	1.4	·	1.9	17.4	2.0	1.8

13: Cc1cccc(NC(=O)NNC(=O)c2sccc2-n2cccc2)c1
14: CN(Cc1ccccc1)C(=O)CN1C(=O)C2C3C=CC(C3)C2C1=O (stereo unspecified)
15: CCC1CCCCN1CCCNC(=O)Cn1nc(-c2ccc(C)cc2)ccc1=O (stereo unspecified)
16: Cc1cccc(-c2oc3ccc(-c4ccc5c(c4)OCO5)cc3c2C(=O)OCc2ccc(O)cc2)c1
17: CC(C)(C)N=C1NN=C(c2ccc(Cl)cc2)CS1
18: CSc1cccc(NC(=O)c2ccccn2)c1

Screen / compound no.	13	14	15	16	17	18
BJeLR viability	7.4	-0.4	-13.1	4.3	-4.1	6.0
Sa RN4220 lethal	3.9	3.7	2.9	6.0	7.6	4.0
PrP 5UTR inh	-8.1	-35.1	-7.0	-21.5	-18.6	·
Mtb hypoxia inh	4.8	2.0	10.1	-0.7	-0.1	0.2
Mtb hypoxia inh growth	3.7	1.4	0.3	1.3	1.2	8.4
Bead autofluor	3090	21276*	6238	3059	4488	·
Sa ugtP lethal	-0.4	1.3	5.7	-1.4	4.0	-0.8

19: CN(C(=O)c1ccc(NC(=O)Cc2cccc([N+](=O)[O-])c2)cc1)C1CC1
20: COc1ccc(C(=O)N2CCN(c3cccc(Cl)c3)CC2)cc1
21: Cc1cc(-c2onc(C)c2C(N)=O)no1
22: COc1ccc(CN(C)C(C)C(=O)N(C)CC(=O)Nc2ccc(C)cc2)cc1F (stereo unspecified)
23: CC(/C=C1\SC(=S)N(C(C(=O)O)c2ccccc2)C1=O)=C\c1ccccc1 (stereo unspecified)
24: COC(=O)[C@]1(Cc2ccccc2)N[C@H](CN(C)C(=O)COc2ccccc2)[C@@H]2C(=O)N(C)C(=O)[C@@H]21

Screen / compound no.	19	20	21	22	23	24
BJeLR viability	·	-4.6	-10.6	·	-8.9	·
Sa RN4220 lethal	7.9	2.4	3.0	6.3	-0.9	0.5
PrP 5UTR inh	-5.3	-8.8	-16.3	-20.0	-18.9	-14.3
Mtb hypoxia inh	1.7	10.5	5.7	-6.4	4.3	2.2
Mtb hypoxia inh growth	-2.5	6.5	-8.4	5.8	-3.1	8.9
Bead autofluor	3751	6724	3954	6652	4994	3360
Sa ugtP lethal	9.0	2.6	10.3	6.1	29.9	-0.8

25: COc1ccc(-c2ccc(OC)c([C@H]3[C@H]4C=CC[C@@H](C)[C@@H]4C(=O)N3Cc3ccccc3)c2)cc1C
26: CC1(CCc2ccccc2)NC(=O)N(CC(=O)Nc2ccccc2)C1=O (stereo unspecified)
27: CCC(C)N(C(=O)CSc1nnc(NC(C)C)s1)C1CCS(=O)(=O)C1 (stereo unspecified)
28: Cc1ccc(S(=O)(=O)Nc2cccc(-c3ccc(N4CCCCCC4)nn3)c2)cc1
29: CCOc1c(Br)cc(C2NS(=O)(=O)N=C3CCCCCN32)cc1OC (stereo unspecified)
30: COC(=O)CP(=O)(c1ccccc1)c1ccccc1

Screen / compound no.	25	26	27	28	29	30
BJeLR viability	-2.2	1.8	-2.8	5.4	1.1	-3.3
Sa RN4220 lethal	·	2.2	4.2	0.6	-2.0	15.3
PrP 5UTR inh	-21.0	0.2	-12.4	-75.9	1.5	-1.5
Mtb hypoxia inh	·	-9.1	-11.0	15.9	·	-0.2
Mtb hypoxia inh growth	·	5.7	-9.3	6.9	·	-0.4
Bead autofluor	3624	3712	4293	5711	4858	2966
Sa ugtP lethal	·	8.1	11.6	6.1	1.6	7.5

# Reformatted tab-delimited: part of the list above
no.	smiles	BJeLR viability	Sa RN4220 lethal	PrP 5UTR inh	Mtb hypoxia inh	Mtb hypoxia inh growth	Bead autofluor	Sa ugtP lethal
27	CCC(C)N(C(=O)CSc1nnc(NC(C)C)s1)C1CCS(=O)(=O)C1 (stereo unspecified)	-2.8	4.2	-12.4	-11.0	-9.3	4293	11.6
29	CCOc1c(Br)cc(C2NS(=O)(=O)N=C3CCCCCN32)cc1OC (stereo unspecified)	1.1	-2.0	1.5	·	·	4858	1.6
30	COC(=O)CP(=O)(c1ccccc1)c1ccccc1	-3.3	15.3	-1.5	-0.2	-0.4	2966	7.5

# (list continues)
31: COc1ccc(CNC(=O)CN(C)S(=O)(=O)c2ccc(Br)s2)cc1
32: Cc1ccccc1Nc1nc(Nc2ccccc2C)nc(SC2=NCCS2)n1
33: CCN(C[C@H]1N[C@@](CC)(C(=O)OC)[C@H]2C(=O)N(C)C(=O)[C@@H]12)S(=O)(=O)c1ccc(C(C)(C)C)cc1
34: C=CCNC(=O)/C(=C/c1ccco1)NC(=O)c1ccc(Br)o1
35: COCCN(C(=O)COC(=O)C1COc2ccccc2O1)c1c(N)n(Cc2ccccc2)c(=O)[nH]c1=O (stereo unspecified)
36: COC(=O)CCN(C(=O)c1ccc2c(c1)OCO2)c1ccccn1

Screen / compound no.	31	32	33	34	35	36
BJeLR viability	-14.9	-1.9	·	10.8	12.9	-16.8
Sa RN4220 lethal	0.9	-3.2	1.1	3.1	0.5	-1.7
PrP 5UTR inh	-30.0	-1.9	-1.2	-21.0	-13.3	-10.3
Mtb hypoxia inh	5.4	0.7	-6.4	·	5.2	·
Mtb hypoxia inh growth	5.1	-0.6	3.8	·	-5.4	·
Bead autofluor	3651	5206	3793	4099	4904	2091
Sa ugtP lethal	12.1	-16.9	-0.4	6.7	4.4	5.4

37: Cc1ccc(NC(=O)Cn2c(O)c(N=NC(=O)c3cc4ccccc4cc3O)c3ccccc32)cc1
38: COc1ccc(-c2cc3ccccc3cn2)cc1
39: Cc1onc(-c2ccccc2Cl)c1C(=O)Nc1ccc(OCC(=O)N2CCOCC2)cc1
40: COc1ccc(NC(=O)C2Cc3cccc(OC)c3OC2=NO)cc1 (stereo unspecified)
41: CCn1cnc2cc(NCc3nc4ccccc4n3C)ccc21
42: CC(C)(C)OC(=O)N1CCC[C@H]1C(=O)Nc1ccc(C#N)cc1

Screen / compound no.	37	38	39	40	41	42
BJeLR viability	·	·	8.0	·	9.1	-2.1
Sa RN4220 lethal	22.1	10.0	6.4	0.9	4.9	-3.8
PrP 5UTR inh	-13.2	-18.9	-15.3	·	-77.9	-9.1
Mtb hypoxia inh	13.9	-1.9	3.1	8.5	2.0	0.7
Mtb hypoxia inh growth	0.1	6.3	-9.7	-8.3	2.7	3.7
Bead autofluor	7271	3753	16183*	·	6857	3018
Sa ugtP lethal	3.9	11.2	11.6	4.6	11.9	-1.9

43: COc1cccc(/C=N/NC(=O)c2cc3c(OC)cccc3[nH]2)c1O
44: COc1cccc(NC(=O)CN(c2ccccc2OC)S(=O)(=O)c2cccs2)c1
45: Fc1ccccc1C=NNc1ncnc2nc[nH]c12
46: O=C(Nc1ccc2[nH]ncc2c1)c1ccc(F)cc1
47: O=C(CS(=O)(=O)Cc1ccccc1)Nc1ccccc1Cl
48: NC(=O)c1ccc(NC(=O)CSc2nncn2-c2ccccc2)cc1

Screen / compound no.	43	44	45	46	47	48
BJeLR viability	8.0	·	·	-1.6	12.1	-12.8
Sa RN4220 lethal	·	3.8	3.7	4.8	4.2	5.7
PrP 5UTR inh	15.9	2.4	·	-45.5	-11.2	-17.0
Mtb hypoxia inh	·	25.7	-4.9	3.4	5.1	-9.3
Mtb hypoxia inh growth	·	8.4	-5.4	9.0	-2.4	4.1
Bead autofluor	2193	3067	·	3800	2134	3897
Sa ugtP lethal	·	12.6	-0.2	8.5	12.8	4.7

49: COc1ccccc1N1CCN(C(=O)CCc2c[nH]c3ccccc23)CC1
50: O=[N+]([O-])c1ccccc1S(=O)(=O)NCc1cccnc1
51: COc1ccc(NS(=O)(=O)c2cc(NC(=O)c3ccncc3)ccc2N2CCOCC2)cc1
52: CCOC(=O)c1c(C)[nH]c(C(=O)N/N=C/c2cccc(OC)c2)c1C
53: CCOCCCNC(=O)c1ccc(-n2c(=S)[nH]c3ccccc3c2=O)cc1
54: O=C(NC1CC1)C1=NOC(CNc2ncc(C(F)(F)F)cc2Cl)C1 (stereo unspecified)

Screen / compound no.	49	50	51	52	53	54
BJeLR viability	-19.2	-0.7	4.7	8.9	1.4	-3.5
Sa RN4220 lethal	4.2	7.5	10.5	·	21.7	-1.9
PrP 5UTR inh	26.3	-31.0	-36.3	-14.6	-21.8	0.5
Mtb hypoxia inh	4.9	7.0	-6.9	·	·	0.2
Mtb hypoxia inh growth	4.6	7.4	3.5	·	·	7.5
Bead autofluor	4602	4769	2136	2036	4331	3168
Sa ugtP lethal	-0.2	2.4	3.2	·	6.7	-10.5

55: COCc1ccc(-c2c(-c3ccsc3)oc(=O)c3cc(OC)c(OC)cc23)cc1
56: O=C1c2ccccc2NC(c2cccc(Cl)c2)N1N=C1CCCCCC1 (stereo unspecified)
57: O=C(Nc1ccc2oc(=O)ccc2c1)c1cccnc1
58: CCCCC(=O)Nc1nnc(C2=COCCO2)o1
59: Clc1ccccc1N1CCN(Cc2c[nH]c3ccccc23)CC1
60: CC1CCCCC1NC(=O)NC(=O)CCl (stereo unspecified)

Screen / compound no.	55	56	57	58	59	60
BJeLR viability	·	-12.4	-8.5	-11.7	5.9	-0.2
Sa RN4220 lethal	-4.2	3.6	4.3	17.8	-4.3	7.7
PrP 5UTR inh	-17.0	-58.7	-17.5	-10.7	-19.1	-4.2
Mtb hypoxia inh	-0.5	7.3	12.8	14.6	0.9	·
Mtb hypoxia inh growth	4.9	9.2	11.1	-1.2	12.1	·
Bead autofluor	3028	9908	4191	3194	4197	2496
Sa ugtP lethal	-21.9	-14.4	-2.1	6.0	-18.1	0.9

61: O=C(CSc1ccc(Cl)cc1)Nc1cccc(-c2nc3ccccc3[nH]2)c1
62: CCCCCCC(NC(=O)Cc1ccc2ccccc2c1)C(=O)O (stereo unspecified)
63: O=C(OCn1nnc2ccccc2c1=O)c1ccc2ccccc2n1
64: C=CCN1C(=O)C(Cc2cccc(Cl)c2)S/C1=N/N=C/c1ccco1 (stereo unspecified)
65: Cc1cc(C)n(C)c(=O)c1C#N
66: O=C(O)c1ccccc1NN=CC1=C(N2CCOCC2)/C(=C\c2ccccc2)CC1

Screen / compound no.	61	62	63	64	65	66
BJeLR viability	14.7	·	3.8	-6.1	-7.7	·
Sa RN4220 lethal	9.2	12.5	5.9	·	-0.7	5.2
PrP 5UTR inh	-36.8	-33.6	-6.2	4.5	-20.2	·
Mtb hypoxia inh	13.5	2.3	-3.7	·	6.1	5.3
Mtb hypoxia inh growth	-0.3	3.4	-0.8	·	1.5	7.6
Bead autofluor	1987	3347	4657	11285	4274	·
Sa ugtP lethal	0.1	1.0	2.7	·	2.9	12.5
